Compound activity (PubChem)
Vaccinia stage: blocks a specific stage of Vaccinia orthopoxvirus infection, primary screen, cell-based, single point | Vaccinia-infected cells, mCherry/Venus stage reporter fluorescence; hits give low values; some inactives read as strong as hits | activity change (mCherry), % (no concentration beside the values) | hit rate 0.01% among 89,000 | AID 1053133, 2014;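 active = mCherry past -33% and 40 or more points under the early reporter, replicates agreeing; inconclusive = past -33% without that gap or agreement; tested in A549 cells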;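 also: scaled between vehicle wells and reference inhibitor wells; 23 nL library stock went into each well; one replicate is shown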
Vaccinia stage Venus: also measured in Vaccinia stage; calls as there; activity change (Venus), %; measured here: Venus reporter, other viral stage;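 negative = less Venus signal; first of two replicates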
* hit, by the source's call; u = inconclusive; x = no result given.

SMILES	Vaccinia stage	Vaccinia stage Venus
CN(C)C(=O)[C@@]1(Cc2ccccc2CN=[N+]=[N-])COC(c2ccc(OCCCO)cc2)=N1	u	x
CN1C(=O)c2cc(NC(=O)C3CC3)ccc2OC[C@H]2O[C@H](CC(=O)NCc3ccccc3F)CC[C@@H]21	0.8	-1.2
O=C(C[C@H]1C[C@H]2c3cc(NC(=O)C4CCOCC4)ccc3O[C@H]2[C@@H](CO)O1)NCCc1ccccc1	8.0	1.6
Cc1noc(C)c1NC(=O)N(C)C[C@@H]1Oc2c(NC(=O)c3cnccn3)cccc2C(=O)N([C@@H](C)CO)C[C@@H]1C	14.3	12.0
O=C(C[C@@H]1CC[C@@H](NC(=O)c2ccc(F)cc2)[C@H](CO)O1)NCCc1ccncc1	2.3	2.4
CCNC(=O)[C@@H]1[C@@H](CO)[C@@H]2Cn3c(ccc(C4=CCCCC4)c3=O)[C@@H]2N1CC1CC1	13.7	-3.8
COc1cccc(C#Cc2ccc([C@@H]3[C@@H](C#N)N(C(=O)C4CCCC4)[C@@H]3CO)cc2)c1	-13.4	-9.5
COc1ccc(CN(C)C[C@@H]2Oc3ccc(NS(=O)(=O)c4ccc(F)cc4)cc3CC(=O)N([C@H](C)CO)C[C@@H]2C)cc1	-19.6	-16.7
COc1cc(CN2CC3(CN(C(=O)NC(C)C)C3)c3c(n(C)c4cc(OC)ccc34)[C@H]2CO)cc(OC)c1	5.2	-1.5
CC(C)NC(=O)Nc1ccc2c(c1)CC(=O)N([C@@H](C)CO)C[C@@H](C)[C@@H](CN(C)S(=O)(=O)c1ccc(F)cc1)O2	7.6	-0.3
O=C(C[C@@H]1C=C[C@H](NC(=O)CN2CCOCC2)[C@H](CO)O1)NCCc1ccccc1	7.7	10.4
C[C@H]1CN([C@@H](C)CO)C(=O)c2cccc(NC(=O)C3CCOCC3)c2O[C@@H]1CN(C)S(=O)(=O)c1ccccc1	12.7	3.9
C[C@@H]1CN([C@@H](C)CO)C(=O)c2c(c3ccccc3n2C)-c2ccccc2CO[C@H]1CN(C)S(=O)(=O)c1cccc(C#N)c1	-34.2	-22.1
C[C@@H]1CN([C@H](C)CO)C(=O)c2cc(NC(=O)CCCCCC(=O)Nc3ccccc3N)ccc2O[C@H]1CN(C)S(C)(=O)=O	13.4	12.6
CO[C@H]1CN(C)C(=O)c2cc(NC(=O)Nc3cccc(Cl)c3)ccc2OC[C@H](C)N(C)C[C@H]1C	-27.0	-22.4
C[C@@H]1CN([C@@H](C)CO)C(=O)Cc2cc(NC(=O)Cc3ccccc3)ccc2O[C@H]1CN(C)Cc1ccccc1	-20.3	-13.6
CCC(=O)Nc1ccc2c(c1)C(=O)N(C)C[C@@H](OC)[C@H](C)CN(Cc1cccnc1)[C@@H](C)CO2	5.0	7.5
COc1ccc(S(=O)(=O)N2C[C@@H](O)COC[C@@H]3O[C@@H](CC(=O)N[C@@H]4CCN(Cc5ccccc5)C4)CC[C@H]32)cc1	u	x
O=C(NCc1ccccc1)[C@@H]1[C@@H](CO)[C@@H]2Cn3c(cccc3=O)[C@H]1N2CC1CCCC1	6.6	4.8
CCC(=O)N(C)C[C@@H]1Oc2cc(C#C[C@@H](C)O)ccc2S(=O)(=O)N([C@@H](C)CO)C[C@@H]1C	5.0	8.6
COc1ccc(C#Cc2ccc([C@H]3[C@@H](CO)N4CCCCN(C(=O)Cc5cccnc5)C[C@@H]34)cc2)cc1	u	x
COc1cccc(S(=O)(=O)N[C@H]2CC[C@H](CCn3cc(-c4ccccn4)nn3)O[C@H]2CO)c1	-12.3	-4.2
C[C@H](CO)N1C[C@H](C)[C@H](CN(C)Cc2ccc(C(=O)O)cc2)Oc2ccc(NS(C)(=O)=O)cc2CC1=O	13.7	7.3
CS(=O)(=O)N1[C@H](C(=O)NCC2CC2)[C@@H](CO)[C@@H]2Cn3c(ccc(-c4ccccc4F)c3=O)[C@@H]21	9.5	1.6
C[C@@H]1CN([C@H](C)CO)C(=O)Cc2cc(NS(=O)(=O)c3ccccc3)ccc2O[C@H]1CN(C)S(=O)(=O)c1cccs1	14.3	5.4

Single records, from the list above. Order of values: Vaccinia stage	Vaccinia stage Venus
`O=C(C[C@H]1C[C@H]2c3cc(NC(=O)C4CCOCC4)ccc3O[C@H]2[C@@H](CO)O1)NCCc1ccccc1` in the list: 8.0	1.6
`CN(C)C(=O)[C@@]1(Cc2ccccc2CN=[N+]=[N-])COC(c2ccc(OCCCO)cc2)=N1` in the list: u	x
`O=C(C[C@@H]1C=C[C@H](NC(=O)CN2CCOCC2)[C@H](CO)O1)NCCc1ccccc1` in the list: 7.7	10.4
`CC(C)NC(=O)Nc1ccc2c(c1)CC(=O)N([C@@H](C)CO)C[C@@H](C)[C@@H](CN(C)S(=O)(=O)c1ccc(F)cc1)O2` in the list: 7.6	-0.3
`O=C(NCc1ccccc1)[C@@H]1[C@@H](CO)[C@@H]2Cn3c(cccc3=O)[C@H]1N2CC1CCCC1` in the list: 6.6	4.8

(further entries)
SMILES	Vaccinia stage	Vaccinia stage Venus
Cc1noc(C)c1NC(=O)N(C)C[C@H]1OCCCC[C@H](C)Oc2ccc(NC(=O)NC3CCCCC3)cc2C(=O)N([C@H](C)CO)C[C@@H]1C	37.8	12.9
O=C(NCC1CC1)[C@@H]1[C@@H](CO)[C@@H]2Cn3c(ccc(-c4cccnc4)c3=O)[C@H]1N2C(=O)C1CC1	1.9	6.6
CO[C@H]1CN(C)C(=O)c2ccc(NC(=O)C3CCC3)cc2OC[C@@H](C)N(Cc2ccncc2)C[C@@H]1C	-3.7	-0.4
CC=Cc1ccc2n(c1=O)C[C@H]1[C@H](CO)[C@@H](C(=O)N(C)C)[C@@H]2N1C(=O)c1ccc(F)cc1 (mixture of isomers)	4.4	-7.8
C[C@H]1CN([C@@H](C)CO)C(=O)c2cc(NC(=O)Cc3cn(C)c4ccccc34)ccc2O[C@@H]1CN(C)C(=O)Nc1ccccc1	4.6	4.1
CN(C)C(=O)C[C@@H]1C[C@H]2c3cc(NC(=O)Nc4ccc(C(F)(F)F)cc4)ccc3O[C@H]2[C@H](CO)O1	-14.6	-8.0
CCCN(C)C[C@H]1Oc2ncc(C#CCN(C)C)cc2C(=O)N([C@@H](C)CO)C[C@@H]1C	16.2	9.3
COc1ccc(NC(=O)Nc2cccc3c2O[C@@H](CN(C)S(=O)(=O)c2cn(C)cn2)[C@@H](C)CN([C@@H](C)CO)C3=O)cc1	1.7	8.1
C[C@@H]1CN([C@H](C)CO)C(=O)Cc2cc(NC(=O)Nc3cccc4ccccc34)ccc2O[C@H]1CN(C)Cc1ccc(Cl)c(Cl)c1	-2.7	6.9
C[C@@H]1CN([C@H](C)CO)C(=O)c2cc(/C=C/c3ccccc3)cnc2O[C@H]1CN(C)C(=O)C1CCC1	-24.0	-22.6
CCCNC(=O)[C@@H]1[C@@H](CO)[C@@H]2Cn3c(ccc(C4=CCCC4)c3=O)[C@@H]2N1Cc1ccccc1	-5.1	9.7
CC(C)CC#Cc1ccc2c(c1)O[C@H](CN(C)C(=O)C1CCC1)[C@@H](C)CN([C@@H](C)CO)S2(=O)=O	u	x
C[C@@H]1CN([C@H](C)CO)C(=O)c2cc(C#Cc3ccccc3)cnc2O[C@@H]1CN(C)S(=O)(=O)c1ccccc1F	u	x
C[C@@H]1CN([C@H](C)CO)C(=O)c2ccccc2-c2ccccc2CO[C@@H]1CN(C)S(=O)(=O)c1ccccc1	15.6	5.9
O=C(Nc1ccccc1F)N1CCCCN2[C@H](CO)[C@@H](c3ccc(C4=CCCCC4)cc3)[C@H]2C1	u	x
C[C@H](CO)N1C[C@H](C)[C@H](CN(C)S(=O)(=O)c2ccccc2)Oc2c(NS(=O)(=O)c3ccc(Cl)cc3)cccc2C1=O	-19.9	-13.9
Cc1ccc(S(=O)(=O)N[C@H]2CC[C@@H](CCNC(=O)C3CC3)O[C@H]2CO)cc1	-20.7	-15.9
O=C(Nc1ccc2c(c1)[C@@H]1C[C@H](CC(=O)N3CCOCC3)O[C@H](CO)[C@@H]1O2)NC1CCCC1	18.3	12.0
Cc1ccc(S(=O)(=O)N(C)C[C@@H]2OCCCC[C@H](C)Oc3ccc(NC(=O)CCCCCC(=O)Nc4ccccc4N)cc3C(=O)N([C@H](C)CO)C[C@@H]2C)cc1	6.2	4.7
O=C(C[C@@H]1CC[C@H]2[C@@H](COC[C@@H](O)CN2S(=O)(=O)c2ccccc2)O1)N1CCOCC1	13.9	12.4
C[C@@H]1CCCCO[C@@H](CN(C)C(=O)Nc2cccc3ccccc23)[C@H](C)CN([C@@H](C)CO)C(=O)c2cc(NS(=O)(=O)c3cccs3)ccc2O1	23.1	20.7
COCC(=O)Nc1ccc2c(c1)C(=O)N(C)C[C@H](OC)[C@@H](C)CN(C(=O)NC(C)C)[C@@H](C)CO2	-1.8	-0.1
CCCN1[C@@H]2c3ccc(C4=CCCCC4)c(=O)n3C[C@@H]2[C@@H](CO)[C@@H]1C(=O)OC	19.7	8.9
Cc1ccc(S(=O)(=O)Nc2ccc3c(c2)CC(=O)N([C@@H](C)CO)C[C@@H](C)[C@@H](CN(C)CC2CCCCC2)O3)cc1	u	x
COc1cccc(S(=O)(=O)Nc2ccc3c(c2)[C@H]2C[C@@H](CC(=O)N[C@@H](C)c4ccccc4)O[C@H](CO)[C@H]2O3)c1	-13.2	-10.6
Further entries:
SMILES	Vaccinia stage	Vaccinia stage Venus
COc1cccc(-c2cn(CC[C@H]3CC[C@H](NC(C)=O)[C@H](CO)O3)nn2)c1	-5.4	-4.2
C[C@@H]1CN([C@@H](C)CO)C(=O)c2cc(NS(=O)(=O)c3cccs3)ccc2O[C@@H]1CN(C)S(=O)(=O)c1ccc(Cl)cc1	-14.4	-14.8
COc1ccc2c3c(n(C)c2c1)[C@H](CO)N(C(=O)C1CCC1)CC31CCN(CC2CCCC2)CC1	-30.9	-17.3
C[C@H](CO)N1C[C@H](C)[C@H](CN(C)C(=O)Nc2ccccc2F)Oc2cc(-c3ccc(F)cc3)ccc2S1(=O)=O	u	x
O=C(N[C@H]1CC[C@H](CCn2cc(C3(O)CCCC3)nn2)O[C@@H]1CO)C1CCC1	-17.5	-15.3
C[C@H](NC(=O)C[C@H]1CC[C@@H]2[C@H](COC[C@@H](O)CN2C(=O)Nc2cccc(Cl)c2)O1)c1ccccc1	-26.8	-16.6
N#C[C@@H]1[C@H](c2ccc(-c3ccccc3F)cc2)[C@H](CO)N1C(=O)C1CCC1	u	x
C[C@H](CO)N1C[C@H](C)[C@H](CN(C)C(=O)Nc2ccc(F)cc2)Oc2ncc(C#Cc3ccc(F)cc3)cc2C1=O	u	x
C[C@H](CO)N1C[C@H](C)[C@H](CN(C)C(=O)Nc2cccc3ccccc23)Oc2c(NS(=O)(=O)c3cn(C)cn3)cccc2C1=O	32.7	16.6
CCCNC(=O)Nc1ccc2c(c1)OC[C@@H](C)N(CCC)C[C@H](C)[C@H](OC)CN(C)C2=O	10.2	18.8
COc1cccc(S(=O)(=O)Nc2ccc3c(c2)C(=O)N(C)C[C@H](OC)[C@@H](C)CN[C@@H](C)CO3)c1	15.6	15.1
O=C(NCc1nc2ccccc2[nH]1)C1=C[C@H](c2ccc3c(c2)OCO3)C[C@H](OCc2ccc(CO)cc2)O1	-5.4	-10.6
C[C@@H]1CCCCO[C@@H](CN(C)CC2CC2)[C@@H](C)CN([C@H](C)CO)C(=O)c2cc(NC(=O)Nc3ccc4c(c3)OCO4)ccc2O1	9.3	6.9
CN1C(=O)c2cc(NS(C)(=O)=O)ccc2OC[C@@H]2O[C@@H](CC(=O)NC3CCCCC3)CC[C@H]21	10.2	1.8
C[C@@H]1CN([C@@H](C)CO)C(=O)c2cc(NC(=O)C3CC3)ccc2O[C@@H]1CN(C)C(=O)Nc1ccc(C(F)(F)F)cc1	-20.3	-11.4
C[C@H]1CN([C@@H](C)CO)C(=O)c2cccc(NS(=O)(=O)c3ccc(F)cc3)c2O[C@H]1CN(C)S(=O)(=O)c1ccc(F)cc1	1.0	9.5
CC(C)C#Cc1cnc2c(c1)C(=O)N([C@@H](C)CO)C[C@@H](C)[C@H](CN(C)C(=O)Nc1cccc(F)c1)O2	6.7	-0.9
CN1C(=O)c2cc(NC(=O)C3CCCC3)ccc2OC[C@H]2O[C@H](CC(=O)NCCc3ccncc3)CC[C@H]21	14.7	14.3
CC(=O)N1[C@@H]2c3ccc(-c4cccnc4)c(=O)n3C[C@@H]2[C@@H](CO)[C@@H]1C(=O)NCc1ccccc1Cl	10.8	4.1
COc1ccc(OC(=O)N(C)C[C@@H]2OCc3ccccc3-c3ccccc3C(=O)N([C@@H](C)CO)C[C@H]2C)cc1	12.9	4.5
C[C@H](CO)N1C[C@H](C)[C@H](CN(C)Cc2ccc(C(=O)O)cc2)Oc2c(NC(=O)Nc3ccc4c(c3)OCO4)cccc2C1=O	13.5	10.6
C[C@H](CO)N1C[C@H](C)[C@@H](CN(C)C(=O)CCCN(C)C)OCCCC[C@H](C)Oc2ccc(NC(=O)NC3CCCCC3)cc2C1=O	20.3	10.6
COCC(=O)N1C[C@@H]2[C@H](c3ccccc31)[C@@H](CO)N2Cc1cc(F)ccc1F	5.9	3.1
CC(C)NC(=O)Nc1ccc2c(c1)CC(=O)N([C@@H](C)CO)C[C@H](C)[C@@H](CN(C)C(=O)Nc1ccc3c(c1)OCO3)O2	3.4	3.3
C[C@@H]1CN([C@@H](C)CO)C(=O)CCCn2nncc2CO[C@H]1CN(C)Cc1ccccc1C(F)(F)F	-18.0	-15.5
C[C@@H]1CN([C@H](C)CO)C(=O)c2cc(NS(=O)(=O)c3ccc(Cl)cc3)ccc2O[C@H]1CN(C)Cc1ccc(-c2ccccc2)cc1	-2.5	-7.9

Looked up by compound from above, three records:
SMILES	Vaccinia stage	Vaccinia stage Venus
C[C@@H]1CN([C@@H](C)CO)C(=O)CCCn2nncc2CO[C@H]1CN(C)Cc1ccccc1C(F)(F)F	-18.0	-15.5
C[C@@H]1CN([C@H](C)CO)C(=O)c2cc(NS(=O)(=O)c3ccc(Cl)cc3)ccc2O[C@H]1CN(C)Cc1ccc(-c2ccccc2)cc1	-2.5	-7.9
CC(C)C#Cc1cnc2c(c1)C(=O)N([C@@H](C)CO)C[C@@H](C)[C@H](CN(C)C(=O)Nc1cccc(F)c1)O2	6.7	-0.9

A portion of the library (hit frequency here may not be typical).
